Bioassay records deposited in PubChem BioAssay by National Center for Advancing Translational Sciences (NCATS).
TRPML1 agonist = activates the human TRPML1 channel | TRPML1-expressing cells, Ca2+ dye fluorescence, FDSS; host cell line not named in the record; reference of the full effect not given here | activation, % (no concentration beside the values) | 410,000 compounds, 0.12% hits; in the data active = activation above about 50%; inconclusive = about 30% to 50%; inactive = below about 30%; note: 0% is about no effect; the text of the record puts the active cut at 80%
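Calcium fluorescence on an FDSS kinetic reader gave the read-out. Tet-induced TRPML1-DL cells were plated overnight, dye-loaded (Ca8 with quencher, 45-90 min, room temperature, dark), then read 110 s after compound addition, and again 110 s after 4uM final 54-4 (EC80).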
PINK1 modulator = modulators of PINK1 expression; PINK1 immunofluorescence, high-content cytometry, 24 h; Potency, µM (top dose mostly 76.6 µM), without a hit: at the highest dose activation (PINK1 increase), actives largely listed as activators; 410,000 compounds, 0.2% hits; active = well fitted activation curve with a large enough effect; inconclusive = small, poorly fitted or top-dose-only effect; inactive = flat fitted curve, though single readings scatter; cell line not stated here;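 note: potency is the fitted concentration of half-maximal effect; % of control where 0% means no effect; nearly all actives have a fitted effect of over 65% in size; a mitochondrial uncoupler was the plate control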
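PINK1 protein level read as immunofluorescence by microplate cytometer in a fixed, stained stable cell line after 24 h exposure to five compound concentrations, with CCCP as control.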
D2 PAM = positive allosteric modulators of human D2 dopamine receptor. DiscoveRx D2 beta-arrestin cells, luminescence, 90 min; 100% = 57 uM dopamine signal. 360,000 compounds, 0.23% hits. potentiation, % (test concentration not listed). P14416. AID 624464; active = potentiation of 50% or more; inconclusive = 30% to 50%; inactive = 30% or less;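 note: compound concentration not given in the record; tested on top of an EC20 dose of dopamine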
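D2 cells co-treated with compound plus 50 nM dopamine (EC20) for 90 min at 37 deg C to detect potentiation. Beta-arrestin recruitment was read as enzyme-fragment luminescence after 1 h at ambient temperature. Full response was set by 57 uM dopamine.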
Six1-Eya2 inh = blocks human Six1 binding to Eya2 | AlphaScreen GST-Six1/His-Eya2 binding, biochemical; hits give low values; control for the full effect not named in the record | activity change, % (concentration not given with the values) | 360,000 compounds, 0.56% hits | AID 651725 | Q15475+O00167; in the data active = activity change below about -65%; inconclusive = about -30% to -65%; inactive = above about -30%; note: % is set by controls: 0 for no effect and ±100 for the full control effect
Target sequence (O00167 whole entry, looked up): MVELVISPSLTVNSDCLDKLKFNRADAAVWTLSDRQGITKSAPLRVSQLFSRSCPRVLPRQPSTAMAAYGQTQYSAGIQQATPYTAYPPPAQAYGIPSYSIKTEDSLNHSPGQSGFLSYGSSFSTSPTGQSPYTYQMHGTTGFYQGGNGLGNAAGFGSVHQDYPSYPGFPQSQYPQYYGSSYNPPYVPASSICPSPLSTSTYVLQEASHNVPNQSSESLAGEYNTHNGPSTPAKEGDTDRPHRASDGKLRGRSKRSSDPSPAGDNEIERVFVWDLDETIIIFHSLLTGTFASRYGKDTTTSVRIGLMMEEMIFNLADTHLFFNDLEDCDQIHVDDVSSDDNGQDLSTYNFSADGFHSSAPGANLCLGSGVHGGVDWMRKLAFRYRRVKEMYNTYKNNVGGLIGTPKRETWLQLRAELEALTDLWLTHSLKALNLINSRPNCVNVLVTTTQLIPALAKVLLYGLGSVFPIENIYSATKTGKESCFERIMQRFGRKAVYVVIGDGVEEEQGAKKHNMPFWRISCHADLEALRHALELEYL
Target sequence (Q15475 whole entry, looked up): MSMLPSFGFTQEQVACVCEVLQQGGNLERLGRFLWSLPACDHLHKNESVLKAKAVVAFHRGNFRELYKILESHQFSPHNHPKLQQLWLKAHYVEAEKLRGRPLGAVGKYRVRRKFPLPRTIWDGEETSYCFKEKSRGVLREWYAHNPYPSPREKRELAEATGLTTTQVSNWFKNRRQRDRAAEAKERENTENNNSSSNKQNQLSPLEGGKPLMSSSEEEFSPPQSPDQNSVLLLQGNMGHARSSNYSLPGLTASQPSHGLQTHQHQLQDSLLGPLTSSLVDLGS
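Six1/Eya2 binding was read as AlphaScreen signal after compounds were pinned into GST-Six1 plus His-tagged Eya2 (5X stock 250/500 nM) in pH 8.0 Tris/NaCl/TCEP buffer, beads added, then incubated 1 h, 37 C, dark.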
CtBP-E1A inh = CtBP/E1A binding inhibition | AID 651724 | activity change, % (test concentration not listed) | 340,000 compounds, 0.49% hits | AlphaScreen GST-E1A/His-CtBP binding, 1536-well; hits give low values; control for the full effect not named in the record; in the data active means activity change below about -65%; inconclusive means about -30% to -65%; inactive means above about -30%; note: % is set by controls: 0 for no effect and ±100 for the full control effect
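Steps: dispense buffer (Tris pH 8.0, NaCl 300 mM, TCEP 1 mM, BSA, Tween 20); add 5X protein mix (GST-E1A, His-CtBP, 125 nM each); pin 23 nL compound; 2 h at 37 °C, dark; add 5X beads (50 ug/mL); 1 h; read.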
D2 ag = activates the human D2 dopamine receptor; DiscoveRx PathHunter D2 beta-arrestin, luminescence, 90 min; 100% = 57 uM dopamine signal; activation, % (test concentration not listed); 360,000 compounds, 0.084% hits; in the data active = activation above about 40%; inconclusive = about 15% to 40%; inactive = below about 15%; note: compound concentration not given in the record; the text of the record calls up to 30% inactive
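Agonist mode: compounds alone added to overnight-plated D2 PathHunter cells for 90 min at 37 C, with 57 uM final dopamine (EC100) defining full response. Beta-arrestin recruitment detected by chemiluminescent reagent, read after 1 h at ambient temperature.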
Active calls of the source: *; ? = inconclusive; · = not tested or not shown; [ ] = another dose, or the depositor's remark.

Compound	TRPML1 agonist	PINK1 modulator	D2 PAM	Six1-Eya2 inh	CtBP-E1A inh	D2 ag
COc1ccc(NC(=O)c2ccccc2-c2ccccc2)c(C)c1	1.1	-1.2%	-35	6	·	-8.8
CN(C)C(=O)Nc1ccccc1CC[N+](=O)[O-]	0.1	0.8%	-1	-1	-3	-3.5
NS(=O)(=O)c1ccc(N/N=C/c2ccccc2Br)cc1	2.0	3.9%	-2	-6	0	0.9
O=C(CCn1c2c(c3ccccc31)CCCC2)NNC(=O)c1ccccc1Cl	2.1	14%	-5	-9	-17	-4.8
COc1ccc(CCNc2nc(C)nc3c2nnn3Cc2ccccc2)cc1OC	1.7	5.1%	-2	2	0	-2.1
CCOC(=O)c1cc2sc(C)cc2n1CC(=O)Nc1ccc2c(c1)OCCO2	1.5	0.4%[38.3 µM]	9	-2	11	-0.5
NC(=O)c1ccccc1NC(=O)CN1CCCCCC1	0.0	2.0%	-11	1	1	3.3
CCOC(=O)/C(=N\Nc1ccc(C(C)=O)cc1)c1csc(Nc2ccccc2)n1	2.7	?	-9	-6	-1	-4.0
COc1ccccc1-n1c(COc2ccccc2-c2ccccc2)nnc1SCC(=O)c1c(N)n(C)c(=O)n(C)c1=O	-0.1	0.5%	-6	-1	-5	-0.6
Cc1cccc(C(=O)NCC(=O)OCCOc2ccccc2Cl)c1	0.2	4.1%	-27	14	-14	-6.3
Cc1cccc(N(C(=O)Nc2ccc(Cl)cc2)C2=NCC(C)S2)n1 (stereo unspecified)	-0.7	0.9%	-2	13	-4	-5.0
O=P(c1cccs1)(c1cccs1)c1cccs1	-0.3	2.0%	-15	-1	5	-3.0
CCn1c(SCC(=O)Nc2ccc(C(C)=O)cc2)nc2nc3c(cc2c1=O)CCCC3	1.4	9.3%[38.3 µM]	-2	-4	1	-1.4
CCOC(=O)Nc1ccc(S(=O)(=O)Nc2nccc(C)n2)cc1	0.1	·	-9	2	-9	1.3
N#Cc1ccccc1NC(=O)COC(=O)CCc1ccccc1	-0.1	1.0%	-4	-4	3	-5.3

Next section; the last five above are carried over.
Compound	TRPML1 agonist	PINK1 modulator	D2 PAM	Six1-Eya2 inh	CtBP-E1A inh	D2 ag
Cc1cccc(N(C(=O)Nc2ccc(Cl)cc2)C2=NCC(C)S2)n1 (stereo unspecified)	-0.7	0.9%	-2	13	-4	-5.0
O=P(c1cccs1)(c1cccs1)c1cccs1	-0.3	2.0%	-15	-1	5	-3.0
CCn1c(SCC(=O)Nc2ccc(C(C)=O)cc2)nc2nc3c(cc2c1=O)CCCC3	1.4	9.3%[38.3 µM]	-2	-4	1	-1.4
CCOC(=O)Nc1ccc(S(=O)(=O)Nc2nccc(C)n2)cc1	0.1	·	-9	2	-9	1.3
N#Cc1ccccc1NC(=O)COC(=O)CCc1ccccc1	-0.1	1.0%	-4	-4	3	-5.3
Cc1ccc(C(O)c2ccc(-n3ccnc3)cc2)cc1 (stereo unspecified)	0.9	0.1%	-12	-4	·	3.2
CCc1ccc(Oc2cc(Cl)nc(N)n2)cc1	0.4	1.4%	7	1	5	-0.2
C[C@H](CO)N1C[C@H](C)[C@H](CN(C)Cc2ccccc2)Oc2ncc(Br)cc2C1=O	·	0.0%	·	-4	0	-2.0
COc1ccc(NC(=O)Cc2nnc(SCC(=O)Nc3cc(C)ccc3OC)n2C)cc1	1.2	0.5%	-22	1	18	0.7
CCC(C)[C@H](NC(=O)OC(C)(C)C)c1nnc(SCc2c(C)[nH]c(=O)[nH]c2=O)o1 (stereo partly specified)	0.3	-0.1%	-3	0	1	-2.8
O=C(COC(=O)Cc1ccsc1)Nc1ccc(Br)cc1F	1.0	-0.2%	-14	4	17	-4.3
CC(SCC(=O)O)c1nc2ccccc2[nH]1 (stereo unspecified)	-0.5	-1.0%	2	-4	0	-2.8
COc1ccc(CCNC(=O)COC(=O)Cc2c[nH]c3ccccc23)cc1OC	0.1	-0.4%	-3	-15	-1	-4.0
Cn1cc(-c2ccc(C(=O)NCc3cccc(Cl)c3)c3occc23)cn1	0.3	-0.5%	-14	-11	-17	-4.0
CN(C)c1oc(-c2ccccc2Cl)nc1S(=O)(=O)c1ccccc1	-1.4	-1.0%	1	-11	0	-6.1
COc1ccc(/C=C/C(=O)OCC(=O)NC2CCCCCC2)cc1	-1.0	-0.5%	-10	-1	2	-1.8
OCCC1CN(Cc2cccs2)CCN1Cc1ccccc1 (stereo unspecified)	-0.3	0.6%	-18	5	8	-1.5
O=C(CN1CCOc2ccccc21)N1CCN(c2cccc(Cl)c2)CC1	0.3	1.2%	0	-29	-20	2.2
O=C(Nc1c(C(=O)Nc2cccc(F)c2)oc2ccccc12)c1ccc2c(c1)OCO2	2.0	?	0	-6	-7	-3.0
NC(=O)CN1C(=O)C(=O)N(Cc2ccc(Cl)cc2)C1=O	-0.1	0.9%	-9	4	·	0.5
CCOC(=O)C1CCN(C(=O)CCc2c(C)nc3cc(-c4ccc(OC)cc4OC)nn3c2C)CC1	-0.6	1.1%	3	4	2	-2.7
COc1ccc(OC(C)=O)c(C2c3cc(OC)c(OC)cc3CCN2C(C)=O)c1 (stereo unspecified)	-0.5	·	-11	-1	8	0.2
Cc1ccc(C)c(NC(=S)NC(C)C(c2cccs2)N2CCOCC2)c1 (stereo unspecified)	-0.5	-0.3%	-2	1	1	-3.9
CSc1ccccc1NC(=O)CN(C)CC(=O)NCC(=O)Nc1ccc(F)cc1	0.8	-2.4%	-32	7	-2	-3.6
CCC(=O)c1ccc(OCC(=O)NCC2COc3ccccc3O2)cc1 (stereo unspecified)	2.9	1.0%	-1	2	-9	5.3
CCCCn1c(N)c(N(CC(C)C)C(=O)CSc2ccc3c(c2)OCCO3)c(=O)[nH]c1=O	0.0	-0.7%	-3	14	12	1.7
Cc1ccc(S(=O)(=O)NCCC(=O)N2CCCCCC2)cc1	-1.1	-0.4%	-9	3	11	-0.1
COC(=O)COc1cccc2c(=O)n(CC(=O)N3CCCc4ccccc43)ccc12	0.3	1.4%	-5	1	0	-4.9
COc1ccc(CN2CCN(Cc3ccco3)CC2)c(OC)c1	-0.8	-0.9%	-19	5	-2	-5.1
CN(CC(=O)Nc1ccc(Cl)c(C(F)(F)F)c1)C(=O)c1cccc(N2C(=O)CCC2=O)c1	2.2	1.2%	-2	-4	3	12
O=C(Cn1nnc(-c2ccc(Cl)cc2)n1)NC(=O)NC1CCCC1	0.2	0.4%	-9	1	2	-2.5
Cc1nnc(NC(=O)c2cc3ccccc3o2)s1	-0.1	0.9%	-2	0	2	5.1
Cc1sc2nc(COC(=O)c3cccc(S(=O)(=O)N(C)c4ccccc4)c3)[nH]c(=O)c2c1C	5.1	-0.6%	-3	-4	-13	1.6
O=C(CNS(=O)(=O)c1ccc(Br)s1)N1CCN(c2ncccn2)CC1	-1.7	2.3%	-4	3	3	-3.7
COC(=O)c1ccccc1NC(=O)c1c(Br)cnn1C	-0.5	-1.6%	-4	5	2	-2.7

Part of the list above, reduced to D2 PAM, Six1-Eya2 inh and TRPML1 agonist.
SMILES | D2 PAM | Six1-Eya2 inh | TRPML1 agonist
Cc1ccc(C)c(NC(=S)NC(C)C(c2cccs2)N2CCOCC2)c1 (stereo unspecified) | -2 | 1 | -0.5
CCCCn1c(N)c(N(CC(C)C)C(=O)CSc2ccc3c(c2)OCCO3)c(=O)[nH]c1=O | -3 | 14 | 0.0

Additional entries.
Compound	TRPML1 agonist	PINK1 modulator	D2 PAM	Six1-Eya2 inh	CtBP-E1A inh	D2 ag
COC(=O)c1ccccc1NC(=S)N1CCN(c2ccc(OC)cc2)CC1	1.4	-0.9%	-1	-2	·	0.0
CCSc1nsc(SCC)c1C(N)=O	-0.9	2.1%	-5	2	1	-4.0
COc1ccc(/C=C2\C(=O)OCc3cc(OC)c(OC)cc32)cc1OC	2.3	2.5%	-2	-4	-7	-0.2
Cc1cc(/C=C(\C#N)C(=O)OCC(=O)NC(=O)NC(C)(C)C)c(C)n1CCC(C)C	0.6	3.4%	-12	-1	1	1.1
CC(CC(=O)O)CC(=O)Nc1cc(C(F)(F)F)cc(C(F)(F)F)c1 (stereo unspecified)	0.3	-1.5%	-1	4	3	0.7
COc1ccc(Cl)cc1C(=O)Nc1ccccc1N1CCN(C)CC1	0.8	0.5%	-20	-2	1	-6.4
Cc1cccc(C(=O)OCC(=O)N(C)C(c2ccccc2)c2ccccc2)c1[N+](=O)[O-]	1.4	-1.2%	-5	-4	-11	-6.5
COc1ccc2oc(C(=O)OC(C)C(=O)NCc3ccccc3)c(C)c2c1 (stereo unspecified)	1.6	13%	8	7	-6	2.5
CC(=O)c1cccc(N=Nc2c(C)[nH]c3ccccc23)c1	5.3	2.1%	-3	-4	0	-1.2
O=C(Nc1ccc(S(=O)(=O)Nc2ncccn2)cc1)C1=NN(c2ccccc2)C(=O)CC1	0.8	-0.2%	-11	-14	-30	-2.3
O=C(N/N=C/c1ccoc1)c1cc(Br)ccc1O	-0.2	1.1%	1	-14	-1	-4.1
Cc1cccc(NC(=O)c2cc(=O)[nH]c3ccccc23)c1	·	-1.1%	-11	7	·	2.9
CC(=O)C(/C=N/c1cc(-c2ccc(C)cc2)nn1-c1ccccc1)=C(\C)O	2.0	17%	13	-8	-18	-0.6
COc1cc(OC)cc(C(=O)NNC(=S)Nc2ccc(S(N)(=O)=O)cc2)c1	-0.1	11%	-16	-6	?	-8.8
CC(=O)Nc1sc(N/N=C/c2ccc(C)cc2)nc1-c1ccc(C)cc1	-0.3	1.3%	-16	-10	·	-3.0
CCCCCCCCOC1OC(CO)C(O)C(O)C1NC(C)=O (stereo unspecified)	-0.5	7.3%	-4	24	0	-1.0
O=C(CCCc1nc(-c2ccccc2)no1)N1CCOCC1	0.4	2.0%	-5	9	6	1.0
Fc1ccc(-c2nc3n(n2)Cc2ccccc2-3)cc1	-1.0	-0.4%	-15	-7	0	-2.5
COc1ccc(OCCCC(=O)NNC(=O)c2ccncc2)cc1	0.0	-3.6%	9	3	-2	1.9
COc1ccc(OC)c(NC(=O)CN2CCN(C(=O)c3ccco3)CC2)c1	-1.1	0.9%	-2	-17	-4	-2.0
COc1ccc(CN2CCSc3sccc3C2=O)cc1	1.8	1.0%	-5	2	·	-5.0
COc1cccc(C2C(C#N)=C(N)OC3=C2C(=O)CC(c2ccco2)C3)c1OCc1ccc(F)cc1 (stereo unspecified)	0.9	2.9%	-21	-5	-9	-2.3

2 entries picked at random from those above:
Compound	TRPML1 agonist	PINK1 modulator	D2 PAM	Six1-Eya2 inh	CtBP-E1A inh	D2 ag
O=C(Cn1nnc(-c2ccc(Cl)cc2)n1)NC(=O)NC1CCCC1	0.2	0.4%	-9	1	2	-2.5
CC(=O)C(/C=N/c1cc(-c2ccc(C)cc2)nn1-c1ccccc1)=C(\C)O	2.0	17%	13	-8	-18	-0.6

Rows were taken by chance (roughly 1.3% active in at least one column).
